# RE007 growth inh: qHTS Assay for Inhibitors of the HIV-1 protein Vpr. S. pombe RE007 Vpr strain, BacTiter-Glo ATP luminescence, 24 h; control for the full effect not named in the record. Potency, µM (series often up to 92.2 µM), for inactives: at the top dose activity change, negative = less growth. hit rate 0.21% among 360,000. AID 651644, 2012; active = well fitted falling curve with a large enough effect; inconclusive = small, poorly fitted or top-dose-only effect; inactive = no such curve, though single readings can be large or run the other way;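 further: on the % scale 0 is the no-effect control and ±100 the full control effect; nearly all actives have a fitted effect of over 50% in size; the assay follows cell death caused by Vpr and the record does not say whether a fall means rescue or toxicity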
#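 Fission yeast RE007 carrying one integrated HIV-1 vpr copy, seeded at OD 0.01 in PMG+AL medium with 23 nL pinned compound. Grown 24 h at 30 degrees; viability read by BacTiter-Glo luminescence after 5 min.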
# SARS PLpro yeast: qHTS of Yeast-based Assay for SARS-CoV PLP; S. cerevisiae expressing SARS-CoV PLpro, growth rescue; control for the full effect not named in the record; AID 485353, 2010; Potency, µM (series often up to 32.9 µM), for the others: at the top dose activity, positive = growth rescue; hit rate 0.19% among 330,000; active means well fitted rising curve with a large enough effect; inconclusive means small, poorly fitted or top-dose-only effect; inactive means no such curve, though single readings can be large or run the other way; further: 0% is about no effect; nearly all actives have a fitted effect of over 55% in size; growth read by luminescence after 48 h
# 2A StopGo: High Throughput Screening for Foot and Mouth Disease Virus Antivirals | human cells with a luciferase reporter of 2A StopGo recoding; control for the full effect not named in the record | Potency, µM (doses to about 57.9 µM), for inactives: at the highest dose signal change, negative = less light | hit rate 1.2% among 410,000; active = well fitted falling curve with a large enough effect; inconclusive = small, poorly fitted or top-dose-only effect; inactive = no such curve, though single readings can be large or run the other way; tested in HEK293T cells; further: on the % scale 0 is the no-effect control and ±100 the full control effect; nearly all actives have a fitted effect of over 45% in size; luciferase light after 4 h
# NS1 inh: qHTS Assay for Inhibitors of Influenza NS1 Protein Function | S. cerevisiae slowed by influenza A NS1, growth recovery by OD600 | Potency, µM (top dose mostly 46.1 µM), for inactives: top-dose activity, positive = more growth | hit rate 0.4% among 270,000 | AID 2326, 2010; active means well fitted rising curve with a large enough effect; inconclusive means small, poorly fitted or top-dose-only effect; inactive means no such curve, though single readings can be large or run the other way; further: nearly all actives have a fitted effect of over 50% in size
#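 OD600 was taken as the measure of yeast growth restored by compound in an NS1-expressing S. cerevisiae strain. Cells had been washed out of glucose medium and diluted 1:100 into galactose -URA medium, pH 6.0.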
# Lassa entry inh: qHTS for Inhibitors of binding or entry into cells for Lassa Virus; hit rate 1.2% among 300,000; Lassa virus pseudotype entry inhibition, cell reporter; control for the full effect not named in the record; Potency, µM (series often up to 37.9 µM), for inactives: at the top dose activity change, negative = inhibition, most hits filed as inhibitors; active means well fitted inhibition curve with a large enough effect; inconclusive means small, poorly fitted or top-dose-only effect, or effect the other way; inactive means flat fitted curve, though single readings scatter; tested in HEK293 cells; further: on the % scale 0 is the no-effect control and ±100 the full control effect; nearly all actives have a fitted effect of over 50% in size; luciferase read-out
# MARV entry inh: qHTS for inhibitors of binding or entry into cells for Marburg Virus; Marburg virus pseudotyped entry inhibition, cell reporter; control for the full effect not named in the record; about a third of the inactives were read at about 46 µM; Potency, µM (top dose mostly 37.8 µM), for the others: top-dose activity change, negative = inhibition, actives largely listed as inhibitors; hit rate 1.8% among 300,000; AID 540276, 2011; active = well fitted inhibition curve with a large enough effect; inconclusive = small, poorly fitted or top-dose-only effect, or effect the other way; inactive = flat fitted curve, though single readings scatter; tested in HEK293 cells; about a fifth of its hits are not listed in these tables; further: on the % scale 0 is the no-effect control and ±100 the full control effect; luciferase read-out
# Cruzain inh Det: qHTS Assay for Promiscuous and Specific Inhibitors of Cruzain (with detergent) | hit rate 0.43% among 200,000 | AID 1478, 2009 | purified cruzain, Z-FR-AMC fluorescence, 0.01% Triton | Potency, µM, for inactives: max response, negative = inhibition, usual class: inhibitors;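 further: plate controls were neutral wells for no effect and buffer without enzyme for full effect; nearly all actives have a fitted effect of over 40% in size; top concentration of the series not given in the record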
# Target sequence (P25779 123-467 limits assumed): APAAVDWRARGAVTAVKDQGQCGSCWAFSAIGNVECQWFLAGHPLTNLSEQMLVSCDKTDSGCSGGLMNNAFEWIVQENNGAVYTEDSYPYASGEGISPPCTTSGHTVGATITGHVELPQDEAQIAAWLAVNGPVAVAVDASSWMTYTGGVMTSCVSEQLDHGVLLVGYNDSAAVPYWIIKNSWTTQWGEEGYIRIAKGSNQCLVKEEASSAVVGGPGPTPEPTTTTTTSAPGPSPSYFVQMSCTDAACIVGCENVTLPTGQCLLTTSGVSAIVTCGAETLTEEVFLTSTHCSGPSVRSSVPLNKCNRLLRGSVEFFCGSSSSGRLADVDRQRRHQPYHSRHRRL
#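 15 min RT preincubation of 1.5 nM cruzain with compound, then 2 uM Z-FR-AMC added; kinetic AMC fluorescence, 60 s delta. Triton X-100 0.01%, pH 5.5.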
# Cruzain inh noDet: qHTS Assay for Promiscuous and Specific Inhibitors of Cruzain (without detergent); Cruzipain (Trypanosoma cruzi), P25779; purified cruzain, Z-FR-AMC fluorescence, no detergent; Potency, µM, inactives show max response, negative = inhibition, hits mostly inhibitors; hit rate 2.3% among 200,000;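 further: plate controls were enzyme without inhibitor for no effect and buffer without enzyme for full effect; nearly all actives have a fitted effect of over 40% in size; top concentration of the series not given in the record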
#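 Detergent-free condition (0.00005% Triton X-100) in acetate buffer pH 5.5 with DTT. 1.5 nM enzyme and compound were pre-mixed 15 min, then 2 uM Z-FR-AMC substrate added; reaction progress from fluorescence change between first and third reads (60 s).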
# The depositor's hits bear a star; ? = inconclusive; . = not tested or not shown; & = joins results of further samples; [ ] = dose if it differs, or a comment. Unless noted, the call rests on the fitted dose curve; in most records, active means well fitted curve in the direction sought with a large enough effect; inconclusive means small, poorly fitted or top-dose-only effect, or another doubt; inactive means no such curve, though single readings can be large; an effect the other way counts as inactive or inconclusive. Potency means the concentration at half of the fitted maximal effect.
SMILES,RE007 growth inh,SARS PLpro yeast,2A StopGo,NS1 inh,Lassa entry inh,MARV entry inh,Cruzain inh Det,Cruzain inh noDet
O=S(=O)(c1ccc(N2CCN(c3ccc(F)cc3)CC2)cc1)N1CCCC1,-5%,2%,-11%,1%,11%,-17%,1.9%,-4%
COc1ccc(CN2C(=O)c3ccccc3C2=O)cc1,18%,2%,-6%,-16%,13%[46.1 µM],?,.,.
O=[N+]([O-])c1cccc(C=NNC(=S)NC23CC4CC(CC(C4)C2)C3)c1,3%,.,23%,.,9%,15%,.,.
CCc1c(OC(C)=O)c2ccccc2n(C)c1=O,12%,-6%,-17%,7%,-21%,?,-3.2%,-9%
Cc1c(NC(=O)c2ccc(NS(=O)(=O)c3cccc([N+](=O)[O-])c3)cc2)c(=O)n(-c2ccccc2)n1C,-12%,.,0%,.,0%,1%,.,.
COc1ccccc1CNS(=O)(=O)c1ccc2c(c1)NC(=O)C(C)C(=O)N2 (configuration not stated),.,.,-9%,.,15%[46.1 µM],?,-6.8%,-8%
O=C(COC(=O)c1cncc(Br)c1)NCC1CCCO1 (configuration not stated),10%,2%,-21%,2%,-5%,12%,0.4%,4%
Cc1cc(F)ccc1NC(=O)c1cnccn1,2%,1%,12%,.,.,15%[46.1 µM],.,.
CC1CCN(CCn2c(=S)[nH]c3cc4c(cc3c2=O)OCO4)CC1,-1%,1%,13%,.,.,-8%[46.1 µM],.,.
O=C1CC(C(=O)NCc2ccccc2)N=C(N2CCCCC2)N1 (configuration not stated),0%,-1%,-5%,-3%,-1%,-3%[46.1 µM],0.2%,2%
CS(=O)(=O)N1CCN(Cc2ccc(C(F)(F)F)cc2)CC1,11%,0%,-27%,-104%,?,26%,-0.6%,4%
O=C(CCCN1C(=O)/C(=C/c2cccs2)SC1=S)NNC(=O)c1ccncc1,8%,0%,24%,.,-18%,13%[46.1 µM],.,.
O=C(Cc1cccs1)NCc1ccc(F)cc1,25%,2%,29%,-5%,11%,10%,3.8%,11%
CCCCn1c(-c2ccco2)n[nH]c1=S,8%,12%,-14%,-3%,14%,-5%,-3.4%,-7%
Cc1oc2ccc(O)c(CN3CCOCC3)c2c1C(=O)Nc1ccc(C(C)C)cc1,.,.,-14%,.,?,?,-7.0%,-9%
C=CCSc1nc(C)c(CC(=O)OCCCC)c(=O)[nH]1,9%,-4%,4%,-2%,?,3%,5.5%,0%
CCOc1ccc(C(C)=O)cc1CSc1nnc(-c2cccs2)n1CC1CCCO1 (configuration not stated),5%,-1%,9%,0%,0%,1%[46.1 µM],-7.8%,-5%
CN(C)c1ccc(C(=O)OCc2ccccc2)cc1,-11%,4%,66%[activator],-3%,?,-1%,-5.2%,-1%
Cc1ccc(NS(=O)(=O)c2cc(C(=O)NCc3cccnc3)ccc2C)cc1,-4%,-3%,60%[activator],-15%,-18%,1%,.,.
O=C(Nc1ccc(Cl)c(-c2nc3cc(Cl)ccc3o2)c1)c1cc2ccccc2o1,.,.,34%[activator],.,1%[46.1 µM],.,0.0%,?
CCOC(=O)C1=C(c2ccccc2)NC(=O)NC1c1cccc(OC)c1OC (configuration not stated),-17%,.,-28%,.,0%,-24%,.,.
Cc1c(C)n(Cc2ccccc2)c2ncnc(N)c12,-5%,4%,0%,-25%,-4%,-11%,-2.5%,-3%
COc1ccc2nc(NC(=O)c3nc(SCc4ccccc4F)ncc3Cl)sc2c1,.,.,-15%,.,-4%[46.1 µM],-14%[46.1 µM],0.8%,1%
O=C(C1=COCCO1)N1CCN(S(=O)(=O)c2cccc(Cl)c2Cl)CC1,1%,-3%,-11%,-2%,11%,?,-3.9%,-5%
CCc1nc(-c2ccc(C)nc2OC)no1,1%,0%,-7%,-9%,?,11%,4.7%,-5%
Cc1ccc(NC(=O)CSc2nnc(-c3cnccn3)n2-c2ccccc2)cc1,11%,-2%,14%,12%,-18%,-17%,3.7%,3%
CCCCn1c(N)c(N(CC(C)C)C(=O)C2CCN(S(=O)(=O)c3ccc(Cl)cc3)CC2)c(=O)[nH]c1=O,-14%,-1%,-1%,.,-1%,0%,.,.
CC(=O)Nc1ccc(SCC(=O)c2cc(C)n(-c3ccccc3)c2C)cc1,-6%,-25%,14%,6%,-7%,-21%,-9.4%,?
O=C(COC(=O)c1cc2ccccc2oc1=O)c1cccc([N+](=O)[O-])c1,4%,19%,-12%,1%,-7%,?,-12%,-14%
CCC(C)(C)NC(=O)C(c1ccccc1)N(Cc1cccs1)C(=O)Cn1nnc2ccccc21 (configuration not stated),4%,.,1%,.,-8%,-14%,.,.
O=S(=O)(NC(=NCc1ccccc1)c1ccccc1F)c1ccccc1,4%,1%,38%[activator],3%,.,.,.,.
COC(=O)C(=N/Nc1ccccc1C(=O)OC)/C(C)=N/O,-14%,-20%,-5%,-87%,-7%,?,.,.
CC(C)CNC(=O)/C=C/C(=O)O,9%,0%&1%,58%[activator],4%,.,-4%,.,.
COc1cc(C(=O)OCC(=O)N(C)C)cc(NC(=O)c2ccco2)c1OC,-8%,5%,-16%,10%,-9%,13%,3.2%,-7%
Cc1ccc(-c2noc(CN3CCCCC3)n2)cc1,-12%,0%,0%,4%,?,?,-0.4%,3%
O=Cc1c(NCc2ccco2)nc2ccccn2c1=O,17%,0%,39%[activator],-3%,0%,20%[46.1 µM],.,.
Cc1cccc(C)c1NC(=O)C(=O)NCCOc1ccc(Cl)cc1,-8%,-5%,?,-27%,-5%,-15%,-1.6%,3%
CN(C)CCCOC(=O)C1c2ccccc2Oc2ccccc21,1%,1%,3%,9%,3%,-7%&-7%,1.4%,-9%
CSc1ncc(Cl)c(C(=O)Nc2ccc(NC(C)=O)cc2)n1,8%,0%,-12%&2%,2%,-21%&3%[46.1 µM],-12%&-8%[46.1 µM],-3.8%,-11%
CCOC(=O)c1[nH]c(C)c(C(=O)Nc2ccccc2C)c1C,22%,-3%,25%,-6%,.,-3%,-0.6%,-11%
Cc1ccc2cc3cc(C(=O)N4CCN(c5ccccc5)CC4)sc3nc2c1,.,.,21%,.,23%[46.1 µM],-1%[46.1 µM],-1.4%,-2%
CCc1c(C(=O)NCc2ccc3c(c2)OCO3)[nH]c(C)c1C(C)=O,-3%[3.69 µM],24%,20%,-19%,-21%,-8%,-3.6%,-2%
COc1ccc(Cc2noc(CN3CCC(c4ccncc4)CC3)n2)cc1OC,2%,-3%,?,-2%,.,.,.,.
O=C(Nc1ccc(O)cc1C(=O)O)c1cccs1,-4%,0%,4%,0%,17%[46.1 µM],21%[46.1 µM],.,.
Cc1cc(C(N)=O)nn1-c1c(Cl)cc(Cl)cc1Cl,30%,1%,-21%,3%,.,.,.,.
COc1ccc(C2CC(c3c(-c4ccccc4)c4cc(Cl)ccc4[nH]c3=O)=NN2C(=O)CCC(=O)O)cc1 (configuration not stated),0%,0%,-24%,18%,14%,14%[46.1 µM],.,.
COC(=O)c1ccc(C2C(C(C)=O)=C(O)C(=O)N2CCO)cc1 (configuration not stated),-21%,7%,-14%,2%,4%,2%,-1.2%,-6%
O=C(CCN1CCN(S(=O)(=O)c2ccc(Cl)cc2)CC1)Nc1ccccc1F,12%,-3%,?,.,-27%,-14%[46.1 µM],.,.

# Entries of single compounds, looked up by structure. Order of values: RE007 growth inh	SARS PLpro yeast	2A StopGo	NS1 inh	Lassa entry inh	MARV entry inh	Cruzain inh Det	Cruzain inh noDet
# Record of Cc1cccc(C)c1NC(=O)C(=O)NCCOc1ccc(Cl)cc1 : -8%	-5%	?	-27%	-5%	-15%	-1.6%	3%
# Record of Cc1ccc2cc3cc(C(=O)N4CCN(c5ccccc5)CC4)sc3nc2c1 : .	.	21%	.	23%[46.1 µM]	-1%[46.1 µM]	-1.4%	-2%

# Carrying on:
SMILES,RE007 growth inh,SARS PLpro yeast,2A StopGo,NS1 inh,Lassa entry inh,MARV entry inh,Cruzain inh Det,Cruzain inh noDet
COc1cc(C(c2sc3nc(C)nn3c2O)N2CCC3(CC2)OCCO3)cc(OC)c1OC (configuration not stated),-22%,15%,-11%,1%,4%,-16%,-4.8%,-6%
Cc1ccc(N2CCN(C(=O)c3ccccc3F)CC2)c(C)c1,-4%,-22%,0%,-51%,.,.,-6.6%,4%
CCOC(=O)Cc1csc(NC(=O)CC)n1,9%,-3%,.,14%,1%,3%,5.2%,-4%
Cc1ccc(CCNC(=O)c2ccc3c(c2)N(Cc2cccc(F)c2)C(=O)c2ccccc2S3)cc1,.,.,-21%,.,-9%[46.1 µM],.,-3.9%,?
Cc1ccc(C(=O)NCc2ccc(F)cc2)cc1NC1=NC2CS(=O)(=O)CC2S1 (configuration not stated),19%,5%,-8%,5%,.,.,.,.
CCN(CC)CCNC(=O)C1(O)c2cc(Br)ccc2NC(=O)N1c1c(F)cccc1F (configuration not stated),-11%,0%,-28%,0%,.,.,.,.
C[C@]12CC[C@H](O)CC1=CC(=O)C1C2CC[C@]2(C)C(=O)CCC12 (some centres not stated),105%,-4%,-25%,.,-1%,-19%,.,.
COc1cccc(C(=O)NCCC2=CCCCC2)c1,-8%,-3%,0%,-78%,-16%,?,4.2%,11%
Cc1cccc(Cn2cnc3c(sc4nc(C)cc(C)c43)c2=O)c1,-4%,6%,-1%,-7%,-13%,10%,.,.
CC(=O)Oc1ccc(N2C(=O)C3C4C=CC(CC4)C3C2=O)cc1[N+](=O)[O-] (configuration not stated),5%,-2%,15%,-38%,.,.,.,.
COc1ccccc1NC(=O)CSCc1cc(=O)c2cccc(Cl)c2[nH]1,.,.,-26%,.,-22%[46.1 µM],.,1.3%,-5%
O=C(NCC1CCN(Cc2cccc(Cl)c2)CC1)Nc1cc(Cl)ccc1Cl,.,.,?,.,?,-16%[46.1 µM],-1.6%,0%
CCN(CC)C(=O)CC(c1ccc(F)cc1)c1ccco1 (configuration not stated),2%,-1%,-23%,20%,-4%,-28%[46.1 µM],?,?
C=CCN(CC=C)C(=O)c1cc2ccccc2c(=O)o1,-24%,20%,-22%,0%,13%,-3%,-3.3%,-5%

# Source: PubChem BioAssay
